Bioassay records: PubChem, several laboratories
Mtb growth = M. tuberculosis H37Rv growth inhibitors, H37Rv strain (AID 1626); M. tuberculosis H37Rv growth inhibition; higher % means a stronger effect; inhibition, % at 10 µM; hits with a dose series show IC50 in µM; 220,000 tested, 0.95% active;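 active means confirmed in a dose series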;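 further: bacteria incubated seven days before Alamar blue readout; 0% = bacteria only wells and 100% = bacteria with antibiotic wells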
RecA intein inh = inhibitors of M. tuberculosis RecA intein splicing. 290,000 tested, 0.75% active. cell-free RecA intein splicing, fluorescence. AID 2221. inhibition, %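 (about 9 µM by stock and volumes)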; in the data active means inhibition above about 30%;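 further: 0% = vehicle wells and 100% = reference inhibitor control wells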
Target sequence (P9WHJ3 whole entry, looked up): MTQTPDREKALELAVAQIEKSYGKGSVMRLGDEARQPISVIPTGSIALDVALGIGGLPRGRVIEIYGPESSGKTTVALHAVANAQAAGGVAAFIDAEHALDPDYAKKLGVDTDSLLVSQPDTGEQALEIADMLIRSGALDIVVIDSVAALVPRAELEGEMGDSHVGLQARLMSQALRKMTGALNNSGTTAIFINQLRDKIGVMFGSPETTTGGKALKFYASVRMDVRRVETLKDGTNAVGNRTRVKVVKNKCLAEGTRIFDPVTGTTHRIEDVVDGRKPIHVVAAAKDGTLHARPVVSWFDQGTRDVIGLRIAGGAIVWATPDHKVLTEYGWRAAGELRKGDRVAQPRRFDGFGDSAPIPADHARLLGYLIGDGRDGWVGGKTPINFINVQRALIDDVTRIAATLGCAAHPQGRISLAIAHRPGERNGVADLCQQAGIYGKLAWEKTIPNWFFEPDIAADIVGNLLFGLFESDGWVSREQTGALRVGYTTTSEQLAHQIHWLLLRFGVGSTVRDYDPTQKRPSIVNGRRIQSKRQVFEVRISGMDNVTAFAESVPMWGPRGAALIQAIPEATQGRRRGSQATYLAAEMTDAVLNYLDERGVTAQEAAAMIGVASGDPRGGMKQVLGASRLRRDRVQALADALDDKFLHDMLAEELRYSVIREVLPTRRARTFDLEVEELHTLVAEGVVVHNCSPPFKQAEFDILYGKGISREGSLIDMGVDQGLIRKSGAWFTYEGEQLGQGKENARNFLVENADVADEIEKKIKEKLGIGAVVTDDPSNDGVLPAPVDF
Mtb betalactam = beta-lactam sensitization of Mtb H37Rv; M. tuberculosis H37Rv growth with meropenem, percent inhibition; hits of this screen are not shown here; inhibition, % at 25 µM; 330,000 tested, 0.27% active; AID 434955;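 active means about 74% or more and at least 40 points above the plate without the antibiotic, then above 30% in a dose series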;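 further: growth measured after seven days incubation then overnight dye step; 0% = bacteria only wells and 100% = bacteria with antibiotic; twin plates without the antibiotic show which effects depend on it; some results filed as inactive read as strong as hits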
Arbovirus anti = antivirals against arbovirus infection | arbovirus infection cell-based antiviral screen | inhibition, % at 10 µM | 200,000 tested, 0.37% active | AID 1251;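 active means inhibition from about 30%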;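 further: bluetongue infection of BSR cells; cell survival read as ATP light after 72 h; 0% = infected wells without compound and 100% = uninfected wells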
YopH inh = inhibitors of Yersinia enterocolitica YopH tyrosine phosphatase; inhibition, %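 (about 10 µM by stock and volumes)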; fluorescence Ex485/Em525; AID 898; 140,000 tested, 0.16% active;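 active means inhibition of 50% or more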;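 further: controls were vehicle for no effect and minimum signal wells for full effect; inactives centre near -20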
Arbovirus anti repeat = second read-out of Arbovirus anti, no call of its own (marks repeat the call); inhibition, %; measured here: 10K subset replicate screen; many hits read low in the repeat;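 first of two repeat runs on a subset; 0% = infected and 100% = uninfected wells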
Starred values were filed as active, the others as inactive; . = not tested or not shown.

The first 5 records, to show the layout:
SMILES | Mtb growth | RecA intein inh | Mtb betalactam | Arbovirus anti | YopH inh | others
COc1ccc(-c2csc(NC(=O)c3cc(-c4cccs4)nc4ccccc34)n2)c(OC)c1 | 42% | 2.4 | 93 | 8 | -33
Cc1c(C)[n+](=O)c2c(n1[O-])CCC2 | -2% | -1.4 | -7 | -3 | -38
COc1ccccc1NC(=S)N(CCc1nc2cc(C)c(C)cc2[nH]1)Cc1cccnc1 | -2% | 4.3 | 10 | -4 | -19
Cc1ccc(S(=O)(=O)N2CCN(C(=O)N3CCOCC3)C2c2ccc(N(C)C)cc2)cc1 (centres undefined) | -4% | -0.6 | 22 | 2 | -22
CC(=O)Nc1nc2c(F)cccc2s1 | -9% | 0.9 | 2 | -2 | -47 | Arbovirus anti repeat=4

The list itself, previewed entries included:
SMILES | Mtb growth | RecA intein inh | Mtb betalactam | Arbovirus anti | YopH inh | others
COc1ccc(-c2csc(NC(=O)c3cc(-c4cccs4)nc4ccccc34)n2)c(OC)c1 | 42% | 2.4 | 93 | 8 | -33
Cc1c(C)[n+](=O)c2c(n1[O-])CCC2 | -2% | -1.4 | -7 | -3 | -38
COc1ccccc1NC(=S)N(CCc1nc2cc(C)c(C)cc2[nH]1)Cc1cccnc1 | -2% | 4.3 | 10 | -4 | -19
Cc1ccc(S(=O)(=O)N2CCN(C(=O)N3CCOCC3)C2c2ccc(N(C)C)cc2)cc1 (centres undefined) | -4% | -0.6 | 22 | 2 | -22
CC(=O)Nc1nc2c(F)cccc2s1 | -9% | 0.9 | 2 | -2 | -47 | Arbovirus anti repeat=4
Cc1cc(NC(=O)c2ccccc2F)n(-c2nc3ccccc3[nH]2)n1 | 56% | 0.5 | -2 | -16 | -5
CC(=O)N1CCN(c2ccc(NC(=O)COc3ccc(Cl)cc3Cl)cc2)CC1 | -11% | 0.8 | 6 | -10 | -3
Cc1ccc(C(=O)N/C(=C\c2cccs2)C(=O)NCCCn2ccnc2)cc1C | 0% | -0.8 | -10 | 8 | -26
Cc1cc(C(=O)NNC(=O)COc2c(C)cc(Br)cc2C)n[nH]1 | . | -2.7 | -4 | . | .
Cn1c(=O)c2[nH]c(=O)cnc2n(C)c1=S | -2% | -4.6 | -5 | 1 | .
Cc1c(CN2CCC(CO)(CCOc3ccccc3)CC2)c(=O)n(-c2ccccc2)n1C | 0% | 0.0 | 0 | 4 | .
O=C(NNC(=O)c1cccnc1)Nc1ccccc1 | -2% | 1.3 | 4 | 3 | -35
CC(C)c1ccc(NS(=O)(=O)c2cccc3cccnc23)cc1 | . | -1.6 | 4 | . | .
Cc1nc(-c2ccccc2)sc1-c1nnc(C2CC2)o1 | -2% | 1.4 | 15 | . | .
C/C(=N\Nc1nc(N)cc(Cl)n1)c1ccc(F)cc1 | -3% | -2.8 | 6 | 3 | .
COC(=O)C1=C(C)NC2=C(C(=O)CCC2)C1c1cccs1 (centres undefined) | 0% | -4.9 | . | 7 | -7
CC(C)(CC(=O)O)CC(=O)Nc1ccc(Oc2ccc(C(C)(C)C)cc2)nc1 | -6% | 5.0 | -2 | . | .
CC(C)(C)C(=O)NC(=S)Nc1ccccn1 | 2% | 2.6 | -2 | 2 | .
O=C(N/N=C/c1ccco1)c1cc(Br)ccc1OCc1ccccc1 | 6% | 0.9 | 3 | -17 | 18
Cc1ccc(CN2C(=O)CC(Nc3ccc(N4CCOCC4)cc3)C2=O)cc1 (centres undefined) | . | -5.3 | 7 | . | .
Cc1cccc(NC(=O)CSc2nc(C)c(CC(=O)c3ccc(Br)cc3)c(C)c2C#N)c1C | 9% | -1.6 | 73 | -29 | -2
O=C(CSc1nc2nn(-c3ccccc3)c(=O)c-2c2n1CCCCC2)NCCCc1ccccc1 | 5% | 3.5 | -5 | 15 | .
COC(=O)c1ccc(CN2CCC(n3nccc3NC(=O)C3CC3)CC2)cc1 | . | 2.1 | 1 | . | .
Cc1ccccc1C(=O)NC1CCN(CC(=O)Nc2ccccc2)CC1 | . | 0.4 | 0 | . | .
Cc1cccc(NC(=S)N2CCCC(c3nc4ccccc4[nH]3)C2)c1 (centres undefined) | 9% | 2.4 | 3 | 8 | .
CC(=O)c1ccc(N2CCN(C(=O)c3ccc4c(=O)n(-c5ccccc5)c(=O)[nH]c4c3)CC2)cc1 | -6% | 0.3 | 1 | -5 | 9
CCC(CC)C(=O)NCc1ccc(Cl)cc1 | 6% | -0.4 | -2 | 4 | .
CCCN=C1N/C(=C\c2ccco2)C(=O)N1c1ccccc1 | -5% | 3.7 | -16 | 1 | -3
Cc1ccc(-n2nc3c4c(cccc4c2=O)-c2ccccc2-3)cc1 | 2% | -0.3 | 8 | -5 | -39
CCOC(=O)C1C(O)=CC(=O)CC1c1ccccc1 (centres undefined) | . | -2.1 | -16 | . | .
COc1ccc(CCC(=O)NCc2ccccc2Cl)cc1OC | . | 1.2 | -3 | . | .
CCC(C)OC(=O)c1c(N)n(Cc2cccs2)c2nc3ccccc3nc12 (centres undefined) | 7% | -51 | 0 | -9 | -25
COc1cccc(N2CCN(C3CC(=O)N(c4ccc(Cl)c(Cl)c4)C3=O)CC2)c1 (centres undefined) | -6% | 4.3 | 1 | 3 | -64
CC(/C=N/n1c(-c2ccccc2)n[nH]c1=S)=C\c1ccco1 | 9% | 5.1 | 3 | -6 | -37
O=Cc1ccc(OCC(=O)Nc2ccccc2-c2ccccc2)cc1 | 1% | 1.7 | 3 | -17 | .
Fc1cccc(Cl)c1CSc1nnc(COc2cccc3cccnc23)o1 | 0% | 4.6 | 7 | 25 | -5
O=C(Nc1nc2ccc3ccccc3c2s1)c1ccc(N2CCCCC2)c([N+](=O)[O-])c1 | -4% | -0.8 | -1 | -10 | -13
COc1ccc(S(=O)(=O)Cc2ccc(C(=O)N3CC(C)CC(C)C3)o2)cc1 (centres undefined) | . | -0.4 | 6 | . | .
CC(C)C(=O)N(c1ccc2oc(=O)sc2c1)S(=O)(=O)c1cccs1 | 5% | -2.3 | -2 | -15 | -53
CCOC(=O)N1CCN(c2nnnn2-c2ccccc2)CC1 | 0% | -0.1 | 1 | 3 | -12
N#Cc1cnn(Cc2ccc(Cl)cc2)c1N | -4% | -1.7 | -1 | -2 | -26
O=C(Nc1ccccc1N1CCN(C(=O)c2ccc(Cl)cc2)CC1)c1cccnc1 | -2% | 2.6 | 8 | 0 | -28
COCCNC(=O)C(=O)NNS(=O)(=O)c1ccc(Cl)cc1 | -6% | -2.1 | 5 | -2 | .
C/C(=N\NC(=O)c1cccc(S(=O)(=O)N2CCCC2)c1)c1ccc(C)cc1 | . | -1.1 | 3 | . | .
C/C(=N\NC(=O)c1ccccc1)c1ccc(NC(=O)c2cccs2)cc1 | 4% | 2.7 | -1 | 26 | 2
CCOC(=O)N1CCC(NC(=O)c2cnc3n(c2=O)CCS3)CC1 | -5% | -3.3 | -4 | 10 | . | Arbovirus anti repeat=5
COc1ccc(-c2nnn(Cc3nc(N)nc(N4CCOCC4)n3)n2)cc1OC | -5% | . | -21 | 4 | -4
CC(=O)OCC(=O)NCc1ccc2c(c1)OCO2 | -11% | -1.3 | 9 | -2 | -46
COc1ccccc1/C=C/C=c1\sc2nc(=O)c(Cc3ccccc3)nn2c1=O | -3% | 5.1 | 30 | . | .
CN(C)S(=O)(=O)c1ccc2c(c1)c(=O)c(C(=O)N1CCOCC1)cn2C | -6% | 5.2 | -5 | -1 | -33 | Arbovirus anti repeat=0
CCOCCCNC(=O)C(NC(=O)CC1NC(=O)NC1=O)c1ccc(Cl)cc1 (centres undefined) | -3% | . | 5 | -5 | -46 | Arbovirus anti repeat=1
CC(Oc1ccccc1)C(=O)Nc1ccc(S(=O)(=O)N2CCCC2)cc1 (centres undefined) | . | -0.4 | -6 | . | .
CN(C)C(=O)COc1ccc(Br)cc1 | -2% | -1.7 | -2 | 5 | -31
COC(=O)c1ccccc1NC(=O)CSc1ncccn1 | 11% | -0.9 | 34 | . | .
Cc1ccc(C(=O)O)cc1NC(=O)c1ccc(Cn2nc(C)c(Cl)c2C)o1 | 3% | 1.9 | 1 | -2 | .
c1ccc(-c2[nH]c(-c3ccccc3)[n+](CC3CO3)c2-c2ccccc2)cc1 (centres undefined) | 3% | 25 | 7 | -21 | -3
Cc1ccc2c(C)nc(Nc3nc(CSc4nc5ccccc5[nH]4)cc(=O)[nH]3)nc2c1 | 24% | . | -1 | -20 | -40
Cc1cc(N2C(=O)NC(=O)CC2C)c(C)cc1C(C)C (centres undefined) | -2% | 0.2 | -6 | 6 | -34
CCOC(=O)C1CCCN(C(=O)c2cccs2)C1 (centres undefined) | -8% | -1.1 | -6 | 6 | -36
COc1ccc2cc3c(N)nn(C(=O)c4ccc(Cl)c([N+](=O)[O-])c4)c3nc2c1 | 5% | 3.0 | 4 | 28 | -23

Nothing new here: entries from further up.
SMILES | Mtb growth | RecA intein inh | Mtb betalactam | Arbovirus anti | YopH inh | others
COc1ccc(-c2csc(NC(=O)c3cc(-c4cccs4)nc4ccccc34)n2)c(OC)c1 | 42% | 2.4 | 93 | 8 | -33
Cc1c(C)[n+](=O)c2c(n1[O-])CCC2 | -2% | -1.4 | -7 | -3 | -38
COc1ccccc1NC(=S)N(CCc1nc2cc(C)c(C)cc2[nH]1)Cc1cccnc1 | -2% | 4.3 | 10 | -4 | -19
Cc1ccc(S(=O)(=O)N2CCN(C(=O)N3CCOCC3)C2c2ccc(N(C)C)cc2)cc1 (centres undefined) | -4% | -0.6 | 22 | 2 | -22
CC(=O)Nc1nc2c(F)cccc2s1 | -9% | 0.9 | 2 | -2 | -47 | Arbovirus anti repeat=4
Cc1cc(NC(=O)c2ccccc2F)n(-c2nc3ccccc3[nH]2)n1 | 56% | 0.5 | -2 | -16 | -5

Remaining list, next part:
SMILES | Mtb growth | RecA intein inh | Mtb betalactam | Arbovirus anti | YopH inh | others
CC(C)(C)OC(=O)CN1C(=O)NC2(CCCc3ccccc32)C1=O (centres undefined) | . | -0.1 | -1 | . | .
O=C(c1ccco1)N1CCN(CC(O)COc2ccc(Br)cc2)CC1 (centres undefined) | . | 2.1 | -2 | . | .
CC(C)c1ccc(OCC(O)CNC(C)c2ccccc2)cc1 (centres undefined) | . | 2.8 | 12 | . | .
CCCCCCOc1ccc(CN2CCN(CCO)CC2)cc1 | 3% | 4.5 | . | -1 | -42 | Arbovirus anti repeat=13
COc1ccc(C(=O)N/N=C\C(C)=C\c2ccccc2)cc1OC | . | 3.5 | -2 | . | .
COc1ccc(CCNC(=O)c2cccc(S(=O)(=O)N3CCCCC3)c2)cc1 | -4% | 0.9 | -4 | -5 | .
CC(C)CCNc1nc(-c2ccco2)c2c(c1C#N)CCCC2 | 8% | -2.7 | 1 | 6 | -1
COc1ccccc1NC(=O)CSc1nnc(-c2ccncc2)o1 | -3% | -3.1 | 2 | 0 | -30

The list is partial (hit frequency here may not be typical).
